Bioassay records: PubChem BioAssay, Broad Institute
Shh pathway inh: Sonic Hedgehog pathway inhibition; AID 2313; hit rate 2.1% among 22,000; Shh-LIGHT2 Gli-luciferase reporter, 30 h; inhibition, % (test concentration not listed);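 active means replicate mean of 65% or more; inconclusive means mean lower but half the replicates past it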;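 further: pathway switched on by Shh-conditioned medium diluted 1 in 25 in low serum; 100 nL library stock added to about 40 µL; 0% = median of neutral wells and 100% = positive control level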
PD-1 reversal: activators reversing PD-1 mediated T-cell inhibition | primary human CD4 T cells, PD-L1 beads, CellTiter-Glo 96 h | 29,000 tested, under 10 active | activation, % (concentration not given with the values) | AID 2316;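 active means replicate mean of 50% or more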;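 further: 0% = median vehicle wells and 100% = positive control; 100 nL library stock added to about 50 µL; numbers are from one replicate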
MITF inh: inhibitors of MITF. TRPM1 promoter luciferase, luminescence, 24 h. hit rate 0.28% among 37,000. inhibition, % (test concentration not listed);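 active means most replicates at 85% or more, or half of them and the mean; inconclusive means half reach 85% but not the mean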;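 further: human melanocyte line stably carrying TRPM1 promoter luciferase reporter; 0% = vehicle wells and 100% = a positive control; the first replicate is given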
YB-1 expr inh: YB-1 expression inhibition | U2OS, qRT-PCR YB-1 vs CDIP delta delta Cp, 16 h; hits give high values; zero = DMSO, each unit about twofold | delta delta Cp (YB-1 minus CDIP) (concentration not given with the values) | hit rate 0.37% among 30,000 | AID 434959;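 active means delta delta Cp rounded down to an integer at or above 3, about 3 SD of DMSO wells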;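 further: higher means less YB-1 transcript or more CDIP transcript relative to DMSO; stock transfer was 100 nL into about 100 µL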
* marks the source's active call; other numbers are inactive results; ? = inconclusive; . = no result given. Only part of the results is shown, so the mix of outcomes need not match the whole.

SMILES | Shh pathway inh | PD-1 reversal | MITF inh | YB-1 expr inh
COc1ccc(NC(=O)Nc2ccc3c(c2)C(=O)N([C@H](C)CO)C[C@H](C)[C@@H](CN(C)C(=O)Nc2ccc(C(F)(F)F)cc2)OCCCC[C@@H](C)O3)cc1 | 32 | -3.3 | -8 | -0.13
COc1ccc(S(=O)(=O)Nc2cccc3c2O[C@@H](CN(C)S(=O)(=O)c2ccccc2)[C@H](C)CN([C@@H](C)CO)C3=O)cc1 | 2 | 0.5 | 2 | -0.21
Cc1noc(C)c1S(=O)(=O)Nc1ccc2c(c1)C(=O)N([C@H](C)CO)C[C@H](C)[C@@H](CN(C)C(=O)Nc1ccc3c(c1)OCO3)OCCCC[C@@H](C)O2 | -5 | . | -17 | -0.011
CC(O)c1nc2ccccc2n1CCCOc1ccccc1 (configuration not stated) | . | -0.2 | -26 | .
COC(=O)c1ccccc1NC(=O)C1=C(C)NC(=S)NC1c1cc(Cl)cc(OC)c1OC(C)C (configuration not stated) | . | -4.0 | 23 | .
CN(c1cccc(NC(=O)c2ccccc2N(C)S(C)(=O)=O)c1)S(C)(=O)=O | . | 1.9 | -9 | .
CCN(CC(=O)Nc1ccccc1)S(=O)(=O)c1ccc(C)cc1 | . | 0.3 | -13 | .
C[C@@H]1CN([C@H](C)CO)C(=O)c2cc(NC(=O)CCC(F)(F)F)ccc2O[C@H]1CN(C)Cc1ccc(C(=O)Nc2ccccc2N)cc1 | . | -1.2 | -2 | 0.28
C[C@H](CO)N1C[C@H](C)[C@H](CN(C)S(C)(=O)=O)Oc2ccc(NS(=O)(=O)c3ccc(Cl)cc3)cc2CC1=O | -19 | 1.7 | -5 | 0.021
C[C@@H]1CN([C@H](C)CO)C(=O)c2cc(NC(=O)C3CCCCC3)ccc2O[C@H]1CN(C)Cc1ccc(C(=O)O)cc1 | . | 2.9 | -1 | -0.39
C[C@@H]1CN([C@@H](C)CO)C(=O)c2cc(NC(=O)Nc3ccc(F)cc3)ccc2O[C@@H]1CN(C)C(=O)Nc1ccccc1 | -6 | -0.6 | -13 | 0.072
CS(=O)(=O)Nc1ccc([N+](=O)[O-])cc1Oc1ccccc1 | 1 | 0.4 | 1 | -0.16
COc1ccc(CN(C)C[C@@H]2Oc3ccc(NS(=O)(=O)c4ccccc4)cc3C(=O)N([C@H](C)CO)C[C@H]2C)cc1 | 15 | . | -4 | -0.38
Oc1ccccc1C=Nc1cccc(N=Cc2ccccc2O)c1 | . | -0.3 | 17 | 0.087
Cc1cccc(-c2nnc(SCC(=O)Nc3c(F)cc(F)cc3Br)n2C)c1 | . | -1.3 | -3 | .

Entries of single compounds from above:
CCN(CC(=O)Nc1ccccc1)S(=O)(=O)c1ccc(C)cc1 is entered as Shh pathway inh = .; PD-1 reversal = 0.3; MITF inh = -13; YB-1 expr inh = .
CS(=O)(=O)Nc1ccc([N+](=O)[O-])cc1Oc1ccccc1 is entered as Shh pathway inh = 1; PD-1 reversal = 0.4; MITF inh = 1; YB-1 expr inh = -0.16

Following part:
SMILES | Shh pathway inh | PD-1 reversal | MITF inh | YB-1 expr inh
Cc1cc(C(=O)Nc2cccc3c2O[C@@H](CN(C)Cc2ccc(C(=O)O)cc2)[C@H](C)CN([C@@H](C)CO)C3=O)n(C)n1 | -8 | 0.6 | -3 | -0.42
Cc1ccc(-c2nnc(SCC(=O)c3ccccc3)n2-c2ccccc2)cc1Cl | . | -3.1 | 3 | .
COc1ccccc1NC(=O)C1c2ccccc2Oc2ccccc21 | . | 0.1 | 7 | 0.21
O=C(O)CCNC(=O)Nc1ccccc1 | -12 | 0.2 | -2 | -0.11
C[C@@H]1CN([C@H](C)CO)C(=O)c2cccc(NS(C)(=O)=O)c2O[C@H]1CN(C)CC1CCCCC1 | -12 | 2.0 | 1 | -0.23
N#Cc1c(NC(=O)CSc2n[nH]c(-c3ccc(Cl)cc3)n2)sc2c1CCCC2 | . | 1.5 | 37 | .
Cc1ccc(S(=O)(=O)Nc2ccc3c(c2)C(=O)N([C@@H](C)CO)C[C@@H](C)[C@H](CN(C)C)O3)cc1 | 15 | 1.4 | -8 | -0.18
C[C@@H]1CN([C@H](C)CO)C(=O)c2cc(NC(=O)C3CC3)ccc2O[C@@H]1CN(C)Cc1ccc(C(=O)O)cc1 | . | 1.8 | 1 | 0.024
C[C@H](CO)N1C[C@H](C)[C@H](CN(C)Cc2ccc(C(=O)Nc3ccccc3N)cc2)Oc2ccc(NC(=O)Cn3cnnn3)cc2C1=O | . | 1.8 | -15 | 0.074
Cc1nc(SCC(=O)c2ccc(Cl)cc2)c2c3c(sc2n1)CCCC3 | . | 0.4 | -53 | .
CC(C)NC(=O)N(C)C[C@H]1OCCCC[C@@H](C)Oc2ccc(NC(=O)Cc3ccccc3)cc2C(=O)N([C@H](C)CO)C[C@@H]1C | -16 | . | -2 | -0.16
C[C@@H]1CN([C@H](C)CO)C(=O)c2cccc(N(C)C)c2O[C@@H]1CN(C)C(=O)Nc1ccc(F)cc1 | 21 | . | -9 | 0.52
C[C@H](CO)N1C[C@H](C)[C@H](CN(C)Cc2ccc3c(c2)OCO3)Oc2c(NC(=O)Nc3ccc(C(F)(F)F)cc3)cccc2C1=O | -21 | -4.5 | 27 | -0.099
Cn1c(SCc2nc3ccccc3[nH]2)nnc1-c1cnccn1 | . | 0.3 | -16 | .
C[C@H](CO)N1C[C@H](C)[C@H](CN(C)C(=O)Nc2ccc(C(F)(F)F)cc2)Oc2ccc(NC(=O)c3ccncc3)cc2C1=O | -8 | -2.3 | -15 | -0.04

Grouped by structure: the compounds so far with an NH in an aromatic ring.
SMILES | Shh pathway inh | PD-1 reversal | MITF inh | YB-1 expr inh
N#Cc1c(NC(=O)CSc2n[nH]c(-c3ccc(Cl)cc3)n2)sc2c1CCCC2 | . | 1.5 | 37 | .
Cn1c(SCc2nc3ccccc3[nH]2)nnc1-c1cnccn1 | . | 0.3 | -16 | .

Additional results follow.
SMILES | Shh pathway inh | PD-1 reversal | MITF inh | YB-1 expr inh
Cc1ccc([N+](=O)[O-])cc1NC(=O)C1(c2ccccc2)CCN(S(=O)(=O)c2ccccc2)CC1 | . | -4.7 | -28 | .
CS(=O)(=O)N(CC(=O)O)Cc1ccccc1 | . | 2.1 | 3 | .
CNC[C@@H]1Oc2ccc(NS(=O)(=O)c3ccc(C)cc3)cc2C(=O)N([C@H](C)CO)C[C@@H]1C | . | 2.3 | -6 | -0.048
Cc1ccc(S(=O)(=O)N(C)C[C@H]2Oc3c(NC(=O)c4ccncc4)cccc3C(=O)N([C@H](C)CO)C[C@H]2C)cc1 | 5 | 1.9 | -35 | 0.28
CS(=O)(=O)N(CC(=O)Nc1cc(Cl)ccc1Cl)c1cccc2ccccc12 | . | 1.0 | 1 | .
CCOC(=O)CSc1n[nH]c(CN2c3ccccc3Sc3ccccc32)n1 | ? | 0.6 | -3 | -0.13
COCCc1ccc(OCC(O)CNC(C)C)cc1 (configuration not stated) | 13 | . | 10 | -0.12
C[C@@H]1CN([C@@H](C)CO)C(=O)Cc2cc(NC(=O)Nc3ccc(C(F)(F)F)cc3)ccc2O[C@@H]1CN(C)Cc1ccc(C(=O)O)cc1 | -54 | 1.2 | -12 | 0.26
CCC(C)N(C)C(=O)c1cc2ccccc2c(-c2ccccc2Cl)n1 (configuration not stated) | -45 | . | 6 | -0.16
Cc1noc(C)c1NC(=O)N(C)C[C@@H]1Oc2c(NC(=O)Nc3cccc4ccccc34)cccc2C(=O)N([C@H](C)CO)C[C@@H]1C | -101 | . | -2 | -0.51
Cc1ccc(S(=O)(=O)N(C)C[C@@H]2Oc3ccc(NS(=O)(=O)c4ccccc4)cc3C(=O)N([C@@H](C)CO)C[C@H]2C)cc1 | -1 | -3.7 | 1 | 0.11
C[C@H](CO)N1C[C@H](C)[C@H](CN(C)S(=O)(=O)c2cccs2)Oc2ccc(NC(=O)CCCCCC(=O)Nc3ccccc3N)cc2C1=O | . | 1.5 | 16 | 0.18
Oc1ccccc1C=Nc1cccc2ccccc12 | 7 | 0.7 | 29 | -0.26
C[C@H](CO)N1C[C@H](C)[C@@H](CN(C)C(=O)Nc2ccc(F)cc2)Oc2c(NC(=O)CCCCCC(=O)Nc3ccccc3N)cccc2C1=O | . | 0.8 | -22 | 0.26
Cc1ccc(S(=O)(=O)Nc2ccc3c(c2)C(=O)N([C@H](C)CO)C[C@@H](C)[C@@H](CN(C)Cc2ccc(Oc4ccccc4)cc2)O3)cc1 | ? | -1.2 | 54 | 0.083
COc1ccc(CN(C)C[C@@H]2Oc3ccc(NC(=O)NC4CCCCC4)cc3CC(=O)N([C@H](C)CO)C[C@H]2C)cc1 | -16 | . | 7 | 6.7*
Nc1nc2c(C(=O)N3CCOCC3)nnn2c2ccccc12 | -76 | 3.3 | -62 | -0.059
C=C1C(=O)O[C@@H]2[C@H]3C(C)=CC(=O)C3=C(C)C[C@H](O[C@@H]3O[C@H](CO)[C@@H](O)[C@H](O)[C@H]3O)[C@@H]12 | -8 | 2.1 | -10 | -0.97
C[C@H](CO)N1C[C@H](C)[C@H](CN(C)S(=O)(=O)c2ccccc2)Oc2c(NC(=O)c3nc4ccccc4s3)cccc2C1=O | 2 | -3.9 | 23 | 1.2
CC(C)CNC(=O)C1Sc2nnc(-c3ccccc3)n2NC1c1ccccc1 (configuration not stated) | -42 | -1.2 | 4 | 0.52
O=C(COc1cc(Cl)c(Cl)cc1Cl)NCc1ccco1 | . | -1.5 | -58 | .
C[C@@H]1CN([C@@H](C)CO)C(=O)c2cc(NS(C)(=O)=O)ccc2O[C@H]1CN(C)C(=O)Nc1ccc(C(F)(F)F)cc1 | -16 | . | 0 | 0.1
COc1ccc(S(=O)(=O)N(C)C[C@H]2Oc3ccc(NS(=O)(=O)c4cccs4)cc3CC(=O)N([C@@H](C)CO)C[C@H]2C)cc1 | -10 | . | -12 | -0.0059
C[C@H](CO)N1C[C@H](C)[C@H](CN(C)C(=O)Nc2ccc(F)cc2)Oc2ccc(NS(=O)(=O)c3ccc(F)cc3)cc2C1=O | . | -4.7 | -6 | 0.17
COc1ccc(NC(=O)N(C)C[C@H]2Oc3ccc(NC(=O)C4CC4)cc3CC(=O)N([C@H](C)CO)C[C@H]2C)cc1 | -61 | 1.0 | 0 | 0.025
COc1ccc(S(=O)(=O)N(C)C[C@@H]2Oc3c(NC(=O)c4nc5ccccc5s4)cccc3C(=O)N([C@H](C)CO)C[C@@H]2C)cc1 | 19 | -4.6 | 54 | -0.15
C[C@H](CO)N1C[C@H](C)[C@@H](CN(C)Cc2ccc(C(F)(F)F)cc2)Oc2ccc(NC(=O)CCCN(C)C)cc2C1=O | 2 | 0.0 | 0 | -0.2
Cc1ccc(S(=O)(=O)Nc2cccc3c2O[C@H](CN(C)C(=O)Nc2ccc(F)cc2)[C@@H](C)CN([C@@H](C)CO)C3=O)cc1 | -41 | -2.2 | -8 | 0.27
C[C@H](CO)N1C[C@H](C)[C@@H](CN(C)C(=O)Nc2ccccc2)Oc2ccc(NC(=O)c3ccncc3)cc2C1=O | -13 | 0.8 | 8 | -0.28
CS(=O)(=O)N(CC(=O)NC1CCCCC1)c1ccc(Cl)cc1Cl | . | -0.7 | -6 | .
COc1ccc(S(=O)(=O)N(C)C[C@@H]2Oc3c(NC(=O)C4CCOCC4)cccc3C(=O)N([C@@H](C)CO)C[C@H]2C)cc1 | 8 | . | -11 | -0.44
C[C@@H]1CN([C@H](C)CO)C(=O)Cc2cc(NS(=O)(=O)c3ccc(F)cc3)ccc2O[C@H]1CN(C)Cc1ccc2c(c1)OCO2 | 6 | 0.3 | -1 | -0.046
CCCCC/C=C\C/C=C\CCCCCCCC(=O)NCC(=O)O | -93 | 2.9 | -1 | -0.79
COc1cc(NC(=O)C(Sc2nc(C)cc(C)c2C#N)c2ccccc2)c(OC)cc1Cl (configuration not stated) | 32 | 3.0 | -4 | -0.3
COc1cc([N+](=O)[O-])ccc1NC(=O)COc1ccc2ccccc2c1 | . | -1.6 | 3 | .
CC1NC(=O)C(C#N)=C(SCc2ccccc2)S1 (configuration not stated) | 22 | -4.3 | 26 | -0.084
C[C@H](CO)N1C[C@H](C)[C@@H](CN(C)S(=O)(=O)c2ccc(Cl)cc2)Oc2c(NC(=O)Nc3ccc4c(c3)OCO4)cccc2C1=O | ? | 0.1 | -39 | 0.12
CC(C)(C)Nc1nc(SCC(=O)Nc2ccccc2Cl)nc(N2CCOCC2)n1 | . | 0.1 | 17 | .
COc1ccc(C(=O)NC(c2ccc(OC)c(OC)c2)c2cc(Cl)c3cccnc3c2O)cc1 (configuration not stated) | . | -13 | 60 | .
CC(C)OCCCNc1ncnc(N)c1[N+](=O)[O-] | . | 0.6 | -38 | .

Only PD-1 reversal, for five of the compounds above:
SMILES | PD-1 reversal
CCCCC/C=C\C/C=C\CCCCCCCC(=O)NCC(=O)O | 2.9
COc1cc(NC(=O)C(Sc2nc(C)cc(C)c2C#N)c2ccccc2)c(OC)cc1Cl (configuration not stated) | 3.0
COc1cc([N+](=O)[O-])ccc1NC(=O)COc1ccc2ccccc2c1 | -1.6
CC1NC(=O)C(C#N)=C(SCc2ccccc2)S1 (configuration not stated) | -4.3
C[C@H](CO)N1C[C@H](C)[C@@H](CN(C)S(=O)(=O)c2ccc(Cl)cc2)Oc2c(NC(=O)Nc3ccc4c(c3)OCO4)cccc2C1=O | 0.1
